A1 inh = caspase 3/7 activation in MEF A1-2A-BIM cells, primary screen, A1 inhibitor project, cell-based, luminescence, HTS; Caspase-Glo 3/7 luminescence, 3 h; percent of clofoctol response, vehicle zero; caspase activation, % (test concentration not listed); 330,000 tested, 0.066% active;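 active means over half of replicate activation scores above 10%, or exactly half above 10 with the replicate mean above 10; inconclusive means replicate mean below 10 yet half the replicates above 10; inactive means over half of replicates below 10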;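 further: wells of about 30 µL received 50 nL stock; many hits fall short of the cut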
UCH37 DUB inh = inhibitors of human UCH37 deubiquitinase, primary screen, biochemical, Ub-AMC cleavage, fluorescence. Ubiquitin carboxyl-terminal hydrolase isozyme L5 (Homo sapiens), Q9Y5K5. purified proteasome/UCH37. inhibition, % (concentration not given with the values). 330,000 tested, 0.33% active. AID 588478, 2011;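 active means mean of two replicates above 20%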;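 further: 0% = compound-free wells with enzyme and 100% = wells lacking proteasome; stock transfer was 100 nL into about 20 µL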
Target sequence (Q9Y5K5 whole entry, looked up): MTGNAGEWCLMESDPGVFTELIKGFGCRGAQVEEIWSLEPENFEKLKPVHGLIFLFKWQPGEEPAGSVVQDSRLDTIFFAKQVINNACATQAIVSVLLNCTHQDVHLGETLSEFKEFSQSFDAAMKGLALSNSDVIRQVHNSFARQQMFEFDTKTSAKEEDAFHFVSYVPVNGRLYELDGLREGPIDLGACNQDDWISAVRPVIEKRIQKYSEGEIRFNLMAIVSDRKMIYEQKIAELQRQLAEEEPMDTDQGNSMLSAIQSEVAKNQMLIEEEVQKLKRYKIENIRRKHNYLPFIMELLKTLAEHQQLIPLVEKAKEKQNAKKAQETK
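System: Proteasome-associated human UCH37 deubiquitinase; Input: 0.15 nM proteasome in added enzyme buffer; Also added: Ub-AMC substrate from 1 µM stock; Incubation: 30 min compound-proteasome preincubation then 25 min substrate reaction, room temperature; Detection: fluorescence, ex 355 nm, em 460 nm; Read-out: % inhibition of Ub-AMC cleavage fluorescence; Benchmarks: no-proteasome and no-compound wells.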
E coli growth = E. coli growth inhibition, primary screen, OD600; Escherichia coli growth, 23 h; active compounds read low; OD600 absorbance (concentration not given with the values); 330,000 tested, 0.21% active; AID 1053175, 2014;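 active means OD600 absorbance below the run mean of sample wells minus 3.6 SD, in any replicate, cut at about 0.56 in these data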;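 further: stock transfer was 300 nL into about 60 µL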
Beta2AR agonist = beta2AR agonists driving receptor internalization, primary screen, cell-based, FAP fluorogen, flow cytometry; Am2.2-beta2AR cells; reference of the scale not given here; response, % (concentration not given with the values); 340,000 tested, 0.43% active; AID 504454, 2011;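 active means response above a set limit, near 3 SD of response in nonfluorescent compounds, cut at about 42% in these data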;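 further: stock transfer was 100 nL into about 11 µL; a reference agonist was the positive control; negative values mostly stem from fluorescent compounds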
Vif A3G = inhibitors of Vif binding to APOBEC3G peptide, primary screen, biochemical, TR-FRET, GST-Vif 1-94, biotin-A3G peptide, dose response retest (AID 1117319) | TR-FRET GST-Vif / biotin-A3G peptide binding; higher % means a stronger effect; test concentration not given here; strong numbers were not always called active | one-dose inhibition, %; IC50 in µM for titrated hits | 260,000 tested, 0.57% active | Virion infectivity factor (Human immunodeficiency virus type 1 group M subtype B (isolate …;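 active means above the screen mean plus three standard deviations and confirmed in dose response; inconclusive means results disagree or hit not tested in dose response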;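 further: Vif residues 1-94 fused to GST binding biotinylated APOBEC3G peptide 110-148; 0% = full assay without inhibitor and 100% = GST in place of GST-Vif; retest series ran down from 100 µM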
HNF4A DNA FP = change in binding of human HNF4A to DNA, primary screen, biochemical, fluorescence polarization, FITC-DNA; 360,000 tested, 0.3% active; AID 1224865, 2016; Hepatocyte nuclear factor 4-alpha (Homo sapiens), P41235; 1 h; activity change, % at 10 µM; in the data active means activity change above about 30%, passing the limit was not always enough;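 further: controls were the assay level and a saturating level of protein; the project sought stronger binding though the title names inhibitors; some compounds called inactive have numbers as strong as hits; positive values seem to mean higher polarization but the record does not say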
Target sequence (P41235 whole entry, looked up): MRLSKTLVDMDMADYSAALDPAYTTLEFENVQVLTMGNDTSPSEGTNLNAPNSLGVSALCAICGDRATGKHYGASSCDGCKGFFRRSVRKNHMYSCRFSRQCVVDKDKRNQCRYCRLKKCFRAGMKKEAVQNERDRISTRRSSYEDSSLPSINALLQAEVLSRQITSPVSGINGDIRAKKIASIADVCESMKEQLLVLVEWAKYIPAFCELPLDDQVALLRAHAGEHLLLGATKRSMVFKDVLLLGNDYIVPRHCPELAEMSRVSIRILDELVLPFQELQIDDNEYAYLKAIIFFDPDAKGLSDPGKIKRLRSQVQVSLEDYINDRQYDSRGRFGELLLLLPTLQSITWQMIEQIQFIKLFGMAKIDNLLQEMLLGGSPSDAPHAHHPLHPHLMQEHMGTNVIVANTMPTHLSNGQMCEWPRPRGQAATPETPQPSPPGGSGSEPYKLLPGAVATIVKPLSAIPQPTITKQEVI
LANA-H2B inh = blockers of LANA interaction with H2A/H2B – biochemical, FP readout, HTS, primary screen. Protein LANA1 (Human herpesvirus 8 type P (isolate GK18)), Q9QR71. cell-free LANA-H2A/H2B peptide, fluorescence polarization. inhibition, % (test concentration not listed). 320,000 tested, 0.6% active. AID 2629, 2010; in the data active means inhibition mostly above about 10%, no sharp cut-off; inactive means mostly below about 6.7%;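 further: stock transfer was 7.5 nL into about 10 µL; 0% = median of vehicle wells and 100% = median of positive control wells; one replicate is shown; the record names a cut of 25% in any replicate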
* = called active by the depositor; ? = inconclusive; . = not tested or not shown.

SMILES	A1 inh	UCH37 DUB inh	E coli growth	Beta2AR agonist	Vif A3G	HNF4A DNA FP	LANA-H2B inh
CCOc1ccc(NC(=O)C(C)N2C(=O)c3ccccc3C2=O)cc1 (stereo unspecified)	1.1	1.8	0.601	-10.8	8.3%	-4.0	-11.3
COc1ccc(NC(=O)O/N=C/c2ccccc2)cc1	-3.5	.	.	-6.0	.	-0.4	-1.1
CCOC(=O)c1cn(Cc2ccccc2)nc1-c1ccccc1	0.0	2.7	0.631	-7.6	.	2.1	-9.6
CCCN1CCN(CCCNC(=O)C2CCCN(c3nnc(-n4cccc4)s3)C2)CC1 (stereo unspecified)	0.6	0.9	0.72	-6.7	-0.5%	-4.2	3.4
COc1ccc(C2CC(c3ccc(OC)c(OC)c3)=NN2S(C)(=O)=O)cc1 (stereo unspecified)	-0.7	1.1	0.708	-3.6	-3.9%	0.3	0.0
O=c1c2ccccc2cnn1CCOc1cccc(Br)c1	-6.0	4.5	0.624	-15.0	-15.1%	4.1	1.7
CN(C(=O)COC(=O)c1cc(S(=O)(=O)N(C)C)ccc1Cl)C1CCS(=O)(=O)C1 (stereo unspecified)	1.1	2.0	0.674	13.1	8.6%	-1.6	-7.2
COc1ccc(CN(CC(O)COc2cccc3[nH]cc(C)c23)C(C)(C)C)cc1 (stereo unspecified)	0.7	-0.6	0.611	1.8	-5.4%	2.9	2.5
Cc1cc(NC(=O)COC(=O)C2CC(=O)N(c3cccc(C)c3C)C2)no1 (stereo unspecified)	-0.1	-0.2	0.702	1.3	.	0.6	-5.2
Cc1cc(S(=O)(=O)NCCCN2CCOCC2)ccc1Br	-0.2	2.6	0.632	-5.5	-3.0%	-0.7	4.8
COc1ccccc1CNC(=O)N1CCN(c2ccccc2)CC1	-0.8	1.0	0.681	3.2	.	-1.3	-0.9
COc1cccc2cc(C(=O)c3ccc([N+](=O)[O-])cc3)oc12	-7.7	1.3	0.658	1.1	-9.1%	-0.6	1.8
CN(CC(=O)NCC1CCCCC1)CC(=O)Nc1ccccc1Br	-0.4	1.1	0.681	3.9	.	4.2	0.0
COc1cc2c(-c3ccc4c(c3)OCO4)c(-c3ccsc3)oc(=O)c2cc1OC	-4.2	2.3	0.701	2.1	.	-2.7	2.4
COc1ccc(S(=O)(=O)N2CCN(C(=O)c3cnc(C)cn3)CC2)cc1	0.3	33.5*	0.685	2.6	-4.4%	-7.7	2.6
CCOC(=O)C1CCN(C(=O)CN2C(=O)C(C(C)C)Oc3ccccc32)CC1 (stereo unspecified)	-0.4	3.1	0.625	-2.5	.	-2.5	-0.3
COc1ccc(C(=O)CSc2nnc3ccc(-c4ccccn4)nn23)cc1	0.7	-71.7	0.741	-0.9	.	0.3	2.5
C=CCOC(=O)C1=C[C@@H](c2coc3ccccc3c2=O)C[C@@H](OCc2ccc(CO)cc2)O1	-1.2	-2.4	.	-1.6	13.8%	-3.4	-2.5
Cc1ccc(C(=O)OCC(=O)Nc2ccccc2C(F)(F)F)cc1S(=O)(=O)N1CCOCC1	-0.1	3.0	0.688	5.3	-4.2%	-3.6	4.6
O=C(Cn1cnnn1)NCCc1ccc(Cl)cc1Cl	-0.5	-0.1	0.648	2.8	.	1.8	-3.5
Cc1cc(C)n2nc(SCC(=O)N3CCCC3)nc2n1	-0.2	5.2	0.692	0.8	-4.6%	5.8	-0.5
O=C(CCn1ccc2ccccc21)NC1CCCc2ccccc21 (stereo unspecified)	0.9	-1.4	0.751	2.6	-7.9%	2.7	1.2
COc1ccccc1N(CC(=O)NCCSc1ccccc1)S(C)(=O)=O	0.1	1.6	0.678	15.0	4.9%	1.1	-1.3
c1ccc(-c2ccc3c(c2)NCCN3)cc1	0.5	-71.7	0.584	0.2	?	-0.7	0.2
Cc1ccc(N=Nc2[nH]c3ccccc3c2O)cc1	-2.5	.	.	7.2	-1.3%	7.1	2.2
S=C(NCC1CCCO1)NC1CCCC1 (stereo unspecified)	0.2	4.0	0.722	2.4	3.5%	1.7	0.9
COC(=O)CC(C(=O)Nc1cc(C(=O)OC)cc(C(=O)OC)c1)N1CCN(C)CC1 (stereo unspecified)	0.5	1.2	0.652	9.1	4.0%	-1.5	-1.1
COC(=O)NCC(c1cccnc1)N1CCOCC1 (stereo unspecified)	0.2	1.9	0.675	-1.6	?	1.1	-0.2
Cc1nc2sc3c(c2c2nnc(SCC(=O)NCc4ccco4)n12)CCCC3	0.8	-1.6	0.706	-20.9	-6.2%	-1.1	-1.1
c1nc(N2CCN(Cc3ccc4c(c3)OCO4)CC2)c2[nH]cnc2n1	0.6	4.7	0.713	-0.5	0.6%	1.6	1.2

With a hit mark in UCH37 DUB inh, of those listed so far:
SMILES	A1 inh	UCH37 DUB inh	Beta2AR agonist	Vif A3G	LANA-H2B inh
COc1ccc(S(=O)(=O)N2CCN(C(=O)c3cnc(C)cn3)CC2)cc1	0.3	33.5*	2.6	-4.4%	2.6

Remaining list, next part:
SMILES	A1 inh	UCH37 DUB inh	E coli growth	Beta2AR agonist	Vif A3G	HNF4A DNA FP	LANA-H2B inh
CC(=O)Nc1sc(C)c(C)c1C(=O)OC1CCOC1=O (stereo unspecified)	0.1	4.5	0.773	-9.1	-2.0%	2.7	3.2
CN1C(=O)CC(C(=O)Nc2ccccc2F)SC1=Nc1ccc2c(c1)OCO2 (stereo unspecified)	0.6	1.3	0.723	12.9	-1.6%	-2.8	-2.7
Cc1snc(S(=O)(=O)/C(C#N)=N/Nc2ccc(C(F)(F)F)cc2)c1C#N	0.2	.	.	17.8	6.6%	-4.3	2.3
CN(CCOc1ccc(F)cc1)Cc1ccccc1	-0.5	2.0	0.639	1.4	.	-2.2	2.0
Cc1nn(CC(=O)NCCc2ccccc2)c(=O)c2ccccc12	0.2	1.7	0.679	-5.6	-1.1%	2.8	0.4
Cn1c(N)c(C(=O)COC(=O)C2=COCCO2)c(=O)n(C)c1=O	0.1	3.3	0.663	-4.2	-3.4%	0.4	-1.7
CCOCCCNC(=O)CN(c1cc([N+](=O)[O-])ccc1OC)S(C)(=O)=O	2.3	4.6	0.674	6.3	4.8%	-2.9	-4.2
O=c1[nH]c(-c2ccccc2)c(-c2ccccc2)[nH]1	0.2	-178.4	0.711	-1.2	3.4%	-0.9	0.7
O=C(Nc1ccc(Cl)cc1F)c1ccc2c(c1)C(=O)N(Cc1ccncc1)C2=O	0.7	.	.	.	.	0.9	-2.3
CCOC(=O)C1CCN(C(=O)Nc2ccc3nccnc3c2)CC1	0.3	-299.9	0.803	4.3	-5.0%	0.6	-3.4
CCCCCCc1cc2cc(C(=O)Nc3cccc(OC)c3)c(=O)oc2cc1O	-0.9	-87.4	0.681	22.7	?	2.4	-4.0
Cn1c(SCC(=O)NC2(C#N)CCCCC2)nnc1-c1cccnc1	0.9	0.4	0.681	-1.5	?	-2.1	-3.3
CCOC(=O)c1cc2c(nc1NC(=S)Nc1ccccc1)CC(C)(CC)OC2 (stereo unspecified)	0.4	2.1	0.69	5.9	.	-6.5	-3.2
CCOC(=O)C1C(=O)OC(C)(C)C1C(CC)C(=O)c1ccccc1 (stereo unspecified)	0.8	-1.5	0.702	0.6	-10.5%	5.0	-1.6
CCn1nnc2cc(C(=O)OCC(=O)N(C)Cc3cccc(F)c3)ccc21	0.0	-2.7	0.664	-6.1	.	7.0	-0.7
COc1ccc(N2CCN(CCCNC(=S)Nc3c(C)cccc3C)CC2)cc1	0.1	5.0	0.669	-0.3	-3.2%	3.3	1.9
O=C(CSc1nccn1Cc1ccccc1)NCc1ccccc1	0.8	0.9	0.602	-2.6	-0.4%	-2.5	-3.3
Cc1ccc(-n2nc(C(=O)c3ccccc3)n3c(=O)c(Cc4ccccc4)nnc23)cc1	-0.6	2.3	0.697	-4.1	5.3%	0.3	-0.2
Cn1ncc2cc(NC(N)=S)ccc21	2.2	0.4	0.696	0.2	5.4%	1.3	-4.4
CCOC(=O)c1c(/N=C/C2=C(O)CCCC2=O)sc2c1CCCC2	0.6	.	.	-11.3	?	0.0	1.9
NC(=O)N=Nc1c(O)[nH]c2ccc([N+](=O)[O-])cc12	0.0	5.6	0.669	-1.7	-6.7%	-1.9	1.0
NS(=O)(=O)c1ccc(CCNC/C=C/c2ccccc2)cc1	2.1	3.7	0.721	2.7	.	0.8	0.8
COc1ccccc1N1CCN(S(=O)(=O)c2ccc(NC(C)=O)cc2)CC1	-0.1	1.9	0.663	41.7	0.3%	-2.8	-2.9
CCOC(=O)c1ccc(NC(=S)N2CCN(S(C)(=O)=O)CC2)cc1	0.4	3.2	0.641	-2.5	11.5%	1.1	0.3
O=C(COc1ccc(Cl)cc1)NC1=NN(c2ccccc2)C(=O)C1	0.4	-22.8	0.715	8.8	-1.9%	1.5	-2.1
COc1ccc(CCc2nc(-c3ccc(-n4cccc4)cc3)no2)cc1	-0.7	2.3	0.698	4.5	-5.7%	5.3	-2.1
CC1CCCN(C(=O)CSc2nnc3n(C4CCCC4)c(=O)c4ccccc4n23)C1 (stereo unspecified)	-0.3	2.0	0.734	-12.2	25.0%	-0.6	1.3
CCOC(=O)c1c(C)nsc1NC(=O)C1CCCCC1	-0.2	4.4	0.681	-0.7	.	1.6	2.8
CCc1cccc(C)c1NC(=S)NCc1ccc2[nH]c(C)cc2c1	-0.1	0.6	0.745	17.4	-5.4%	8.2	4.2
CCc1cccc2c(=O)c(C(=O)NCCCOC)c[nH]c12	-0.6	1.3	0.75	-4.5	7.3%	-2.8	0.1
COc1ccc(S(=O)(=O)N2CCC(NC(=O)c3ccccc3)CC2)cc1	-0.3	1.7	0.673	3.3	1.2%	1.8	-1.5
COC(=O)Cc1cnc(NC(=O)CSc2nc(C(C)C)cc(=O)[nH]2)s1	0.2	1.2	0.686	4.5	.	6.8	0.2
COc1ccc(NC(=O)/C=C/c2ccc(Br)o2)cn1	2.2	6.7	.	-2.5	30.0%	-18.2	-7.8
O=C(OCc1ccccc1F)c1ccc2c(c1)-c1ccccc1C2=O	-4.4	0.0	0.716	-1.6	4.0%	-1.9	4.4
O=C(NNc1ccc(Cl)cc1)c1sccc1Cl	-0.6	2.2	0.498*	-1.1	-2.3%	2.9	-0.6
O=C(NC(C(=O)c1ccccc1)n1c(=O)cc[nH]c1=S)c1ccccc1 (stereo unspecified)	-0.8	3.1	0.666	4.6	-2.2%	2.7	-4.3
CCOC(=O)N1CCC(NC(=O)CCS(=O)(=O)c2ccc3c(c2)CCN3C(=O)CC)CC1	0.2	-1.1	0.737	-3.9	-0.9%	-1.2	-0.7
COc1ccccc1/C=C/C=N/NC(=O)Cc1cccs1	0.7	.	.	4.3	-10.6%	-0.4	-7.5
Cc1cc(=O)[nH]c2nnc(-c3ccc(Br)cc3)n12	-4.9	2.6	0.641	1.0	-2.4%	-2.9	-0.1
Cc1csc(NC(=O)c2c(-c3c(Cl)cccc3Cl)noc2C)n1	-0.1	0.0	0.701	3.5	16.0%	0.3	0.8
CCN(CC)C(=O)C(Sc1nnnn1-c1ccc(O)cc1)c1ccccc1 (stereo unspecified)	0.0	1.5	0.656	-1.8	-4.4%	2.5	-2.1
